RE007 growth inh = less growth of the S. pombe RE007 Vpr strain; S. pombe RE007 Vpr strain, BacTiter-Glo ATP luminescence, 24 h; control for the full effect not named in the record; 360,000 tested, 0.21% active; AID 651644; Potency, µM (series often up to 92.2 µM), inactives show at the highest dose activity change, negative = less growth; active = well fitted falling curve with a large enough effect; inconclusive = small, poorly fitted or top-dose-only effect; inactive = no such curve, though single readings can be large or run the other way;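 note: % is set by controls: 0 for no effect and ±100 for the full control effect; nearly all actives have a fitted effect of over 50% in size; the assay follows cell death caused by Vpr and the record does not say whether a fall means rescue or toxicity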
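Fission yeast RE007 carrying one integrated HIV-1 vpr copy, seeded at OD 0.01 in PMG+AL medium with 23 nL pinned compound. Grown 24 h at 30 degrees; viability read by BacTiter-Glo luminescence after 5 min.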
Cruzain inh Det = cruzain (T. cruzi) inhibition with detergent | 200,000 tested, 0.43% active | Potency, µM, without a hit: max response, negative = inhibition, hits mostly inhibitors | purified cruzain, Z-FR-AMC fluorescence, 0.01% Triton | P25779; active = well fitted curve in the direction sought with a large enough effect; inconclusive = small, poorly fitted or top-dose-only effect, or another doubt; inactive = no such curve, though single readings can be large; an effect the other way counts as inactive or inconclusive;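 note: plate controls were neutral wells for no effect and buffer without enzyme for full effect; nearly all actives have a fitted effect of over 40% in size; top concentration of the series not given in the record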
Target sequence (P25779 123-467 limits assumed): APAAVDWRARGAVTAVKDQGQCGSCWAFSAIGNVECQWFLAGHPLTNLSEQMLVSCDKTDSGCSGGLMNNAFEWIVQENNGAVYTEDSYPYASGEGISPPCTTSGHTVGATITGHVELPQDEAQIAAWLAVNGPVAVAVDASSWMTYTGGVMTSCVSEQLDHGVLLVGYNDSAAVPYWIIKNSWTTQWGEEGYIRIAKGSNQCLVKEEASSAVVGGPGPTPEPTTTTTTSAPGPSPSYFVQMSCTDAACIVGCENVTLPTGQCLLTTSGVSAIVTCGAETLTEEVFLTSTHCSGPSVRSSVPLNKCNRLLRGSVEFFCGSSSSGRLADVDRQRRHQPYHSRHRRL
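Enzyme 1.5 nM, Z-FR-AMC 2 uM, NaOAc 100 mM pH 5.5, DTT 5 mM, Triton X-100 0.01%; 15 min RT compound preincubation; kinetic ex360/em450, 60 s delta.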
Cruzain noTriton = inhibitors of Trypanosoma cruzi cruzain without detergent. purified cruzain, Z-FR-AMC fluorescence, no detergent. Potency, µM, for the others: max response, negative = inhibition, hits mostly inhibitors. 200,000 tested, 2.3% active. AID 1476; active = well fitted curve in the direction sought with a large enough effect; inconclusive = small, poorly fitted or top-dose-only effect, or another doubt; inactive = no such curve, though single readings can be large; an effect the other way counts as inactive or inconclusive;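 note: plate controls were enzyme without inhibitor for no effect and buffer without enzyme for full effect; nearly all actives have a fitted effect of over 40% in size; top concentration of the series not given in the record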
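Purified cruzain at 1.5 nM, pre-incubated 15 min with compound at room temperature in 100 mM sodium acetate pH 5.5, 5 mM DTT, 0.00005% Triton X-100. Reaction started with 2 uM Z-FR-AMC; AMC fluorescence increase over 60 s gives rate.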
2A StopGo = FMDV 2A StopGo reporter, luciferase signal. human cells with a luciferase reporter of 2A StopGo recoding; control for the full effect not named in the record. Potency, µM (doses to about 57.9 µM), inactives show at the top dose signal change, negative = less light. 410,000 tested, 1.2% active; active = well fitted falling curve with a large enough effect; inconclusive = small, poorly fitted or top-dose-only effect; inactive = no such curve, though single readings can be large or run the other way; tested in HEK293T cells; note: % is set by controls: 0 for no effect and ±100 for the full control effect; nearly all actives have a fitted effect of over 45% in size; luciferase light after 4 h
NS1 function inh = blocks influenza NS1 protein function; S. cerevisiae slowed by influenza A NS1, growth recovery by OD600; Potency, µM (doses to about 46.1 µM), inactives show at the highest dose activity, positive = more growth; 270,000 tested, 0.4% active; note: actives are rising curves; nearly all actives have a fitted effect of over 50% in size
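Recovery from NS1-induced slow growth read by OD600 in budding yeast switched to galactose assay medium (pH 6.0, -URA) at 1:100 dilution. Compound 23 nl per well; the matching strain lacking NS1 serves as control.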
Marburg entry inh = Marburg virus entry inhibition; Marburg virus pseudotyped entry inhibition, cell reporter; control for the full effect not named in the record; about a third of the inactives were read at about 46 µM; Potency, µM (top dose mostly 37.8 µM), inactives show at the highest dose activity change, negative = inhibition, most hits filed as inhibitors; 300,000 tested, 1.8% active; active = well fitted inhibition curve with a large enough effect; inconclusive = small, poorly fitted or top-dose-only effect, or effect the other way; inactive = flat fitted curve, though single readings scatter; tested in HEK293 cells; about a fifth of its hits are not listed in these tables; note: % is set by controls: 0 for no effect and ±100 for the full control effect; luciferase read-out
LASV entry inh = inhibitors of Lassa virus binding or cell entry; AID 540256; 300,000 tested, 1.2% active; Potency, µM (doses to about 37.9 µM), for inactives: top-dose activity change, negative = inhibition, actives largely listed as inhibitors; Lassa virus pseudotype entry inhibition, cell reporter; control for the full effect not named in the record; active means well fitted inhibition curve with a large enough effect; inconclusive means small, poorly fitted or top-dose-only effect, or effect the other way; inactive means flat fitted curve, though single readings scatter; tested in HEK293 cells; note: % is set by controls: 0 for no effect and ±100 for the full control effect; nearly all actives have a fitted effect of over 50% in size; luciferase read-out
SARS PLP yeast = blocks SARS-CoV papain-like protease in a yeast assay; Potency, µM (titrated, usually from 32.9 µM), inactives show top-dose activity, positive = growth rescue; S. cerevisiae expressing SARS-CoV PLpro, growth rescue; control for the full effect not named in the record; 330,000 tested, 0.19% active; note: 0% is about no effect; nearly all actives have a fitted effect of over 55% in size; growth read by luminescence after 48 h
* hit, by the source's call; ? = inconclusive; . = not tested or not shown; & = joins results of further samples; [ ] = remark or other dose. Unless noted, calls come from the whole dose curve; as a rule, active means well fitted rising curve with a large enough effect; inconclusive means small, poorly fitted or top-dose-only effect; inactive means no such curve, though single readings can be large or run the other way. Potency is the fitted concentration of half-maximal effect. Hits appear at their usual frequency, and some 4.6% of all compounds hit somewhere here.

Sequence of screens – RE007 growth inh	Cruzain inh Det	Cruzain noTriton	2A StopGo	NS1 function inh	Marburg entry inh	LASV entry inh	SARS PLP yeast
CCN(CC)c1ccc(CNCc2cccs2)cc1
  -3%	.	.	-7%	3%	?	?	0%
Cc1cc(NC2CCCCC2)nc(-c2ccccc2O)n1
  -11%	-3.2%	-3%	47%[activator]	-16%	?	?	-21%
CCc1ccc(CN(Cc2ccco2)C(=O)c2ccc(OC)cc2)cc1
  .	-8.4%	3%	-1%	.	-12%[46.1 µM]	-21%[46.1 µM]	.
CC(C(=O)Nc1ccc2c(c1)OCCO2)N(C)CC(=O)Nc1ccccc1Br (stereo not drawn)
  1%	.	.	-24%	.	4%	?	0%
CC(C(=O)NCC1CCCO1)N(C(=O)c1snc(C(N)=O)c1N)c1ccccc1 (stereo not drawn)
  19%	-2.2%	-4%	16%	-20%	-7%	8%	3%
CSC1=NCCN1C(=O)Cc1ccc(-c2ccccc2)cc1
  -9%	.	.	-7%	.	?	-12%	0%
CCN(CC)C(=O)Cn1cc(C(=O)C(=O)N2CCN(c3ccccc3)CC2)c2ccccc21
  -9%	.	.	-3%	-6%	-32%[46.1 µM]	-5%[46.1 µM]	0%
Cc1onc(-c2ccccc2)c1C(=O)N1CCN(c2ccccc2)CC1
  -7%	.	.	-10%	-1%	4%	0%	9%
O=C(NC1CCCN(Cc2ccc(Cl)cc2)C1)c1cccc(N2CCCC2=O)c1 (stereo not drawn)
  -14%	.	.	-7%	18%	-18%	-5%	2%
CCOC(=O)CC1C(=O)NCCN1C(=O)c1ccc(Cl)cc1 (stereo not drawn)
  0%	.	.	-16%	3%	-12%[46.1 µM]	1%[46.1 µM]	0%
Cc1ccc(C(=O)CC2(O)C(=O)N(C)c3ccccc32)s1 (stereo not drawn)
  1%	.	.	2%	1%	.	.	-2%
CCNc1nc(Oc2ccc(C(=O)OC)cc2)nc(N(C)C)n1
  20%	-0.5%	3%	-7%	-4%	4%	-1%	-1%
O=C(Nc1ccc2nccnc2c1)c1ccco1
  -9%	.	.	43%[activator]	-35%	-8%	25%	-2%
Cc1nc2nc(C(F)(F)F)[nH]n2c(=O)c1Cc1ccccc1
  .	-0.5%	5%	-7%	.	.	4%[46.1 µM]	.
Cc1ccc(N2C(=O)c3cccc4c(N)ccc(c34)C2=O)c2cccnc12
  3%	.	.	-17%	3%	.	.	1%
COc1ccc(N(CC(=O)NCCSCc2cccc(Cl)c2)S(C)(=O)=O)cc1
  11%	.	.	-28%	0%	?	?	29%
CN(CCC1CCCCO1)C(=O)CCc1nnc(CCCCc2ccccc2)o1 (stereo not drawn)
  2%	.	.	50%[activator]	-5%	.	.	-2%
CC(C)C(=O)Nc1cccc(C(=O)NCc2ccc3c(c2)OCO3)c1
  -14%	-5.2%	9%	-17%	-10%	?	0%	23%
CCn1c(O)c(/C=C2\C=Nc3ccccc32)sc1=Nc1ccc(C)cc1
  -7%	3.5%	16µM*	.	-5%	?	?	3%
CCOc1ccc2nc(NC(=O)CN3CCC(n4nnc5cc(F)ccc54)CC3)sc2c1
  -17%	5.1%	-5%	?	-35%	?	?	-21%

Sequence of screens – RE007 growth inh	Cruzain inh Det	Cruzain noTriton	2A StopGo	NS1 function inh	Marburg entry inh	LASV entry inh	SARS PLP yeast
COc1ccc(S(=O)(=O)NCCc2cn3nc(C)c(C)nc3n2)cc1F
  4%	.	.	-8%	-2%	.	.	3%
O=C(CCn1cnc2ccccc2c1=O)Nc1ccc(S(=O)(=O)N2CCCC2)cc1
  22%	0.9%	12%	-5%	-12%	8%	4%	.
CCc1cccc(C)c1NC(=O)COC(=O)c1cc([N+](=O)[O-])ccc1N1CCOCC1
  5%	.	.	-21%	.	?	-18%	9%
Cc1cccc(CC(=O)Nc2ccc(C(=O)N3CCCCC3)cc2)c1
  8%	.	.	9%	-3%	?	10%	-1%
CCc1ccc(CN2CCC(n3nccc3NC(=O)c3ccccc3)CC2)o1
  -15%	.	.	-4%	-4%	.	.	-11%
CCc1c(O)nc(SCC(=O)Nc2ccc(OC)cc2)n(C2CCCCC2)c1=O
  -9%	-22%	?	-26%	-5%	27%	?	?
Cc1ccc(-c2noc(CCC(=O)Nc3ccc(F)cc3Cl)n2)cc1
  .	0.1%	-16%	14%	.	0%[46.1 µM]	3%[46.1 µM]	.
CCNc1nc(NC(C)C)nc(N2CC(=O)N(CC(=O)OCC)C2=N)n1
  -3%	2.1%	-3%	-12%	27%	-3%	6%	12%
CC1CCC(NC(=O)c2ccc3c(c2)N(Cc2ccccc2)C(=O)c2ccccc2S3=O)CC1 (stereo not drawn)
  .	-0.5%	-4%	-5%	.	?	2%[46.1 µM]	.
CN(CCCN1CCOCC1)C(=O)c1ccc2nc(Cc3cccc(Cl)c3)oc2c1
  -12%	.	.	-15%	8%	0%	-27%	12%
COc1ccc(C(c2nnnn2Cc2cccs2)N2CCN(c3ccccc3F)CC2)cc1OC (stereo not drawn)
  4%	1.4%	?	8%	-5%	?	?	1%
Cc1ccc(N/C=C(/C#N)c2ccsc2)cc1C
  1%	-3.0%	5%	16%	-5%	?	?	.
O=C(CCCOc1ccccc1)Nc1nccs1
  -7%	0.9%	3%	-9%	-6%	0%	2%	9%
O=C(c1ccccc1)N1CCN(c2ccc([N+](=O)[O-])c(N3CCOCC3)c2)CC1
  -12%	-8.0%	-1%	-27%	-7%	-3%[46.1 µM]	-2%	-20%
CCNC(=O)CN1C(=O)NC2(CCCc3cc(OC)ccc32)C1=O (stereo not drawn)
  24%	5.2%	15%	-21%	1%	-11%	3%	0%
CNc1ncnc2c1ncn2[C@H]1C[C@H](OP(=O)(O)O)[C@@H](COP(=O)(O)O)O1
  .	-2.2%	6%	.	-1%	?	3%	.
O=C(COC(=O)/C=C/c1cccc(C(F)(F)F)c1)NC(=O)NCc1ccco1
  6%	.	.	-4%	.	4%	2%	0%
CCOC(=O)c1cnc2c(C)c(C)ccc2c1NCCN1CCOCC1
  -7%	.	.	-11%	24%	-30%	-16%	-3%
Cc1sc2c(c1C)c(=O)nc1n2Cc2ccccc2-1
  .	3.1%	-8%	.	2%	.	.	-4%
Cc1c(C)c(C)c(CN2CCCC2)c(C)c1C
  86%	.	.	15%	-1%	-14%[46.1 µM]	23%[46.1 µM]	0%

Two of the compounds above, in CSV form.
SMILES,RE007 growth inh,Cruzain inh Det,Cruzain noTriton,2A StopGo,NS1 function inh,Marburg entry inh,LASV entry inh,SARS PLP yeast
CC1CCC(NC(=O)c2ccc3c(c2)N(Cc2ccccc2)C(=O)c2ccccc2S3=O)CC1 (stereo not drawn),.,-0.5%,-4%,-5%,.,?,2%[46.1 µM],.
CSC1=NCCN1C(=O)Cc1ccc(-c2ccccc2)cc1,-9%,.,.,-7%,.,?,-12%,0%

The main list resumes with the 5 entries that preceded the break.
Sequence of screens – RE007 growth inh	Cruzain inh Det	Cruzain noTriton	2A StopGo	NS1 function inh	Marburg entry inh	LASV entry inh	SARS PLP yeast
CNc1ncnc2c1ncn2[C@H]1C[C@H](OP(=O)(O)O)[C@@H](COP(=O)(O)O)O1
  .	-2.2%	6%	.	-1%	?	3%	.
O=C(COC(=O)/C=C/c1cccc(C(F)(F)F)c1)NC(=O)NCc1ccco1
  6%	.	.	-4%	.	4%	2%	0%
CCOC(=O)c1cnc2c(C)c(C)ccc2c1NCCN1CCOCC1
  -7%	.	.	-11%	24%	-30%	-16%	-3%
Cc1sc2c(c1C)c(=O)nc1n2Cc2ccccc2-1
  .	3.1%	-8%	.	2%	.	.	-4%
Cc1c(C)c(C)c(CN2CCCC2)c(C)c1C
  86%	.	.	15%	-1%	-14%[46.1 µM]	23%[46.1 µM]	0%
Nc1nonc1-c1nc2ccccc2n1Cc1cccc(Cl)c1
  .	-5.6%	-14%	-3%	.	.	?	.
CCC(C(=O)OCC(=O)Nc1ccc(F)cc1)c1ccccc1 (stereo not drawn)
  28%	.	.	8%	.	6%	-9%	-2%
O=C(O)C(O)(c1ccccc1)C1CCCCC1 (stereo not drawn)
  1%	.	.	5%	14%	.	.	1%
CC(C)CNC(=S)NNC(=O)c1ccccc1OC(F)F
  -2%	5.3%	-1%	12%	0%	0%	-16%	-1%
COc1ccc(S(=O)(=O)NCC2CCCO2)c(Cl)c1Cl (stereo not drawn)
  -6%	.	.	50%[activator]	-3%	?	7%	2%
CC(=O)c1cnc(SCC(=O)O)nc1C
  4%	.	.	-12%	.	-20%[46.1 µM]	-19%	1%
CCOC(=O)CSc1nnnn1-c1cccc2ccccc12
  -28%	-7.0%	-4%	-22%	5%	1%	1%	13%
CN(C)c1nc2n(c(=S)n1)CCS2
  -5%	0.4%	5%	-13%	6%[9.22 µM]	16%&16%	0%	5%
CCOc1ccc2nc3cc(NCc4ccc(OC)cc4)ccc3c(N)c2c1
  -2%	.	.	?	2%	.	.	-2%
O=C(/C(N=Nc1cccc(C(F)(F)F)c1)=C(/O)c1cccs1)C(F)(F)F
  ?	.	.	-14%	-59%	?	?	-6%

Source: PubChem
